S aureus helic: inhibitors of S. aureus replicative helicase, primary screen, biochemical, fluorescence unwinding readout. replicative DNA helicase (DnaC/DnaB), Staphylococcus aureus. purified S. aureus helicase, fluorescence unwinding assay; about half of the hits fall short of the stated cut. inhibition, %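 (tested at about 80 µM)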. 120,000 tested, 0.05% active;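 active means both duplicates at 50% or more, or one of them with a favoured structure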;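 further: 0% = mean of negative control wells and 100% = mean of positive control wells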
MgrA DNA FP: S. aureus MgrA activity modulators, primary screen, biochemical, S. aureus Newman, fluorescence polarization; MgrA-DNA binding; inhibition, %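 (about 10 µg/mL by stock and volumes)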; 84,000 tested, 0.13% active; AID 602314, 2012;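 active means above 50% in either of two replicates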;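 further: 0% = protein plus DNA without compound and 100% = DNA alone without protein; higher means less MgrA bound to DNA so lower polarization; one replicate is shown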
Numbers without * were called inactive; nt = no result given; & = joins results of further samples.

S aureus helic,MgrA DNA FP,SMILES
-9,nt,COC(=O)c1cc(S(=O)(=O)N2CCc3ccccc3C2)c[nH]1
12,1.6,CCc1ccc(C2C(C(=O)Nc3ccccc3C)=C(C)NC3=C2C(=O)CCC3)cc1 (stereo not drawn)
6,nt,N#Cc1c(NC(=O)/C=C\C(=O)O)sc2c1CCCC2
8,-4.7,CCOc1ccc(C(=O)Nc2cc(OC)c(OC)cc2C(=O)OC)cc1
-12,-1.9,c1ccc(Cn2c[n+](Cc3ccccc3)cn2)cc1
-8,nt,CN(/C=C/C(=O)C(F)(F)F)c1ccccc1C(=O)O
3,-0.2,CC(=O)Nc1ccc(NC(=O)C(C)OC(=O)C2(c3ccc(F)cc3)CCCC2)cc1 (stereo not drawn)
1,3.6,CCOC(=O)c1sc(N2C(=O)C(=O)/C(=C(/O)c3ccc(OC)c(C)c3)C2c2ccccc2)nc1C (stereo not drawn)
1,0.7,N#Cc1cccc(NC(=O)C(F)(F)F)c1
-10,nt,CC(=O)O/N=C(\N)COc1ccc(-c2nnco2)cc1
13,-1.7,Cc1ccc(C2C3=C(CC(C)(C)CC3=O)OC3=C2C(=O)CC(C)(C)C3)cc1
nt,1.4,Nc1c(C(=O)CCC(=O)O)oc2ccc(Cl)cc12
6,-0.4,O=c1cc(CSc2ccc(Cl)cc2)nc(N2CCN(Cc3ccc4c(c3)OCO4)CC2)[nH]1
15,-2.0,O=C(O)C1CCCCN1Cc1cccc(F)c1 (stereo not drawn)
22,1.0,CC(CN1CCCN(C)CC1)c1ccccc1 (stereo not drawn)
-2,-0.9,COc1ccccc1Nc1nc(N)nc(CN2CCC(C)CC2)n1
5,nt,O=C(O)CSc1nnc(NC2CCCCC2)s1
9,nt,CN(C)S(=O)(=O)c1cc(C(=O)N2CCN(Cc3ccccc3)CC2)c(Cl)cc1Cl
11,0.4,CCOc1ccc(C(=O)NCCO)cc1
-1,nt,CCN(c1cccc(C)c1)S(=O)(=O)c1ccc2c(c1)N(C)CCO2

The listing continues:
S aureus helic,MgrA DNA FP,SMILES
7,-3.2,Cc1cc(C)c2[nH]c(=O)c(CN(CCN3CCOCC3)C(=O)Nc3ccc(F)cc3)cc2c1
4,nt,Cc1nccn1CCc1nc(N)nc(N)n1
12,nt,CCOC(=O)C1CCCN(CC(O)COc2cccc(C)c2)C1 (stereo not drawn)
nt,-6.5,COc1ccccc1-c1cc(-c2ccccc2)nc(SCC(N)=O)c1C#N
-20,nt,Nc1ccc(-c2nc3ccc(-c4nc5ccccc5o4)cc3[nH]2)cc1
nt,0.9,Cc1ccc(/C(C#N)=C/c2ccc(N(C)C)cc2)cc1
-5,-2.3,COc1ccc(NC(=O)N2CCC(c3nc4ccccc4[nH]3)CC2)cc1
nt,-2.3,COC(=O)C1=C(C)NC2=C(C(=O)CCC2)C1c1ccc(OC)c(COc2c(F)c(F)c(F)c(F)c2F)c1 (stereo not drawn)
7,0.9,CC(=O)NC12CC3CC(C)(C1)CC(NC(C)=O)(C3)C2
5,nt,COc1cc(C(=O)Nc2nsc(-c3ccccc3)n2)cc(OC)c1OC
-3,1.9,CC(=O)NC1CCCCc2sccc21 (stereo not drawn)
-1,0.3,Cc1ccn2cc(CSc3ccccc3N)nc2c1
17,-2.3,CCN1CCN(c2nc(C)c3c(n2)CC(c2ccco2)CC3=O)CC1 (stereo not drawn)
23,nt,CCN1CCN(c2cc(C)c3cc(NC(=S)NC4CCCC4)ccc3n2)CC1
4,nt,CN1CCC(N(C)C(=O)Nc2c[nH]c3ccccc23)CC1
11,-5.7,O=C(O)c1ccc(Br)c(C(=O)O)c1
nt,2.7,O=C(c1ccc(Cl)cc1)n1cc2c(n1)-c1cc(F)ccc1SC2
26,nt,O=S1(=O)CCC(S(=O)(=O)NCc2ccco2)C1 (stereo not drawn)
-7,nt,Cc1cc(CC(=O)NN)n[nH]1
1,nt,CCn1c(CCC(=O)NC(C#N)c2ccc(F)cc2)nc2cc(S(=O)(=O)N(C)C)ccc21 (stereo not drawn)

(more compounds)
S aureus helic,MgrA DNA FP,SMILES
10,nt,CSc1cccc(Nc2cc(C(=O)NCCN3CCOCC3)c3ccccc3n2)c1
nt,4.4,NC(=O)C1CC1(Cl)Cl (stereo not drawn)
nt,-2.3,Cc1nn(Cc2cccc(C(N)=O)c2)c(C)c1Br
-19,nt,Cc1sc2c(c1C)C1=NS(=O)(=O)CCN1C=N2
12,0.1,CN(C)c1ccc(C2(O)C(=O)c3ccccc3C2=O)cc1
6,-1.7,CCN1C(=O)N(CC)C2NC(=S)NNC21 (stereo not drawn)
-1,nt,O=C(CNS(=O)(=O)c1cccc(C(F)(F)F)c1)NC1CCCCCC1
nt,-0.3,C/C(=C(/CCO)SSCC1CCCO1)N(C=O)Cc1cnc(C)nc1N (stereo not drawn)
1,-1.6,COc1ccccc1OCC(=O)Nc1ccc(S(=O)(=O)N2CCN(C)CC2)cc1
nt,0.3,CCOC(=O)c1cncc(C#CCOC(=O)Nc2ccccc2)c1
1,-0.6,O=S(=O)(c1ccccc1)N1CCCC(c2nc(-c3cccs3)no2)C1 (stereo not drawn)
-28,nt,Cc1ccc2onc(CNC(=O)N3CCc4ccccc43)c2c1
-3,2.4,C=C(C)C1CCC(C)=C1COC(=O)c1ccccc1 (stereo not drawn)
1,0.6,Nc1nc(CN2CCCCC2)cs1
nt,-0.6,OCCNc1nc2nonc2nc1Nc1ccccc1
nt,-1.0,O=C(OCc1ccc(-c2cc(C(F)(F)F)cc(C(F)(F)F)c2)o1)c1ccc2c(c1)CCO2
21,-2.7,O=S(=O)(Nc1ccc(O)cc1)c1ccc2ccccc2c1
-46,nt,CC(C)CN(CC(C)C)CC(O)Cn1cnc2c1c(=O)n(C)c(=O)n2C (stereo not drawn)
18,nt,CCn1c(CN(C)CCOc2ccc(OC)cc2)nc2cc(S(=O)(=O)N(C)C)ccc21
-28,nt,CCOC(=O)/C=C1\SCC(=O)N1CCSc1nc(C)cs1

Next entries follow.
S aureus helic,MgrA DNA FP,SMILES
nt,2.3,COc1ccc(-c2cc(C(F)(F)F)n3nccc3n2)cc1
-2,1.5,CC1=CCC2C(=O)N(CCc3c[nH]c4ccccc34)C(=O)C2C1 (stereo not drawn)
nt,0.9,COc1ccc(COC(=O)C2=C(C)NC3=C(C(=O)CCC3)C2c2cc(Br)c(O)c(OC)c2)cc1 (stereo not drawn)
nt,4.5,CCOC(=O)C12CCCC(CCC1)C(=O)O2
nt,-2.0,Cc1nc(-c2ccc(Cl)cc2)sc1C(=O)/C=C/N(C)C
-10,nt,O=C1/C(=C/c2ccncc2)CC/C1=C\c1ccncc1
10,nt,CC1(C)C(=O)Nc2ccccc2N1C(=O)COC(=O)c1cc(S(=O)(=O)N2CCOCC2)ccc1F
6,1.5,O=S(=O)(NN1CCOCC1)c1ccc(Br)cc1
0,nt,CCc1nn(CC(=O)Nc2cc(Cl)c(OC)cc2OC)c(=O)c2cc3sccc3n12
33,nt,Cc1ccc(S(=O)(=O)NN2C(=O)c3ccccc3NC23CCCC3)cc1
12,-0.9,O=C(O)CCCC(=O)Nc1ccccn1
nt,2.2,COc1cc2c(cc1OC)-c1cc(=Nc3c(C)cc(C)cc3C)n(C)c(=O)n1CC2
16,-2.0,CN=C1SC(CC(=O)NC(N)=O)C(=O)N1C (stereo not drawn)
nt,0.7,COc1cccc(OC)c1C(C)(O)C(OC)OC (stereo not drawn)
-10,-0.4,Brc1cccc(OCCSc2ncccn2)c1
0,-0.5,CN(C(=S)S)C1CCS(=O)(=O)C1 (stereo not drawn)
-14,nt,Fc1cc(Br)ccc1N=Cc1ccco1
-1,19,O=C1N(CN2CCCCC2)c2ccccc2C12OCCCCO2
15,6.8,S=C(c1nc2ccccc2[nH]1)N1CCOCC1
11,4.0,CN(C(=O)c1ccco1)c1ccccc1C(=O)NCCc1ccccc1

Reformatted field by field: 3 of the compounds above.
> CCn1c(CCC(=O)NC(C#N)c2ccc(F)cc2)nc2cc(S(=O)(=O)N(C)C)ccc21 (stereo not drawn)
  S aureus helic = 1 | MgrA DNA FP = nt

> Fc1cc(Br)ccc1N=Cc1ccco1
  S aureus helic = -14 | MgrA DNA FP = nt

> O=C(c1ccc(Cl)cc1)n1cc2c(n1)-c1cc(F)ccc1SC2
  S aureus helic = nt | MgrA DNA FP = 2.7

More results.
S aureus helic,MgrA DNA FP,SMILES
11,-4.2,CCOc1ccccc1C=Nc1ccc(Br)cc1
20,nt,Cc1cc(C(=O)Oc2cccc(Cl)c2)n(C(C)(C)C)n1
-2,nt,O=C(O)c1ccccc1S(=O)(=O)c1ccccc1C(=O)O
-2,-2.9,Cc1sc2ncn(CC(=O)Nc3ccccc3)c(=O)c2c1C
nt,0.2,O=C(c1cccc(F)c1)N1CCOCC1
19,nt,CCCC1=Nc2cc(C(=O)NCCCN3CCN(C)CC3)ccc2Sc2ccccc21
21,1.0,Cc1csc(-c2cc3ccccc3oc2=O)n1
5,0.1,Cc1ccccc1NC(=O)NCCCN1CCCC1
-3,-2.5,C=CCN1CCN(C(=O)c2csc(CCC)c2)CC1
0,-1.2,O=C(CSc1nc2ccccc2s1)Nc1ccncc1
0,-1.4,O=C(O)CC(CC(=O)Nc1ccccn1)c1ccccc1 (stereo not drawn)
-14,nt,CCC1CCCCN1C(=O)CSc1cnc2ccccc2n1 (stereo not drawn)
22,15,COc1ccc(-c2nn(-c3ccccc3)cc2C=C2C(=O)CC(C)(C)CC2=O)cc1
nt,-2.0,CCOC(=S)SCc1nc(-c2ccc(Cl)cc2)no1
29,nt,Clc1nc(NCCN2CCOCC2)nc(Nc2ccc3c(c2)OCO3)n1
-16,nt,O=C(O)c1nccnc1-c1nc2ccccc2c(=O)[nH]1
14,nt,CCOC(=O)c1cc(-c2ccc(F)cc2)n(CC(=O)Nc2nnc(SCC)s2)c1C
20,1.6,COC(=O)C(CC(=O)c1ccc(Br)cc1)n1nc(C)cc1C (stereo not drawn)
8,nt,O=C(/C=C/c1ccco1)NCc1ccccc1
21,nt,CCOC(=O)c1ccc(N2C(=O)CC(N3CCN(Cc4ccccc4Cl)CC3)C2=O)cc1 (stereo not drawn)

The list continues:
S aureus helic,MgrA DNA FP,SMILES
30,nt,CCOC(=O)c1c(C)oc(NC(=O)COc2ccc(Cl)cc2Cl)c1C#N
-16,-0.6,CCN(CC)S(=O)(=O)c1ccc2c(c1)nc1n2CCCCC1
16,nt,CN(C(=O)Cn1cnc2onc(-c3ccc(F)cc3)c2c1=O)c1ccc(Br)cc1
-18,nt,CC(C)(C)C(=O)/C=c1\[nH]c(=O)/c(=C\c2cn(CCC#N)nc2-c2ccccc2)s1
-2,nt,N#CC(C(=O)C1COc2ccccc2O1)c1nc2ccccc2s1 (stereo not drawn)
nt,0.9,COC(OC)c1ccc2c(N)c(C(=O)c3ccc(C)cc3)sc2n1
-10,nt,O=c1/c(=C/c2ccc(-c3ccc(F)cc3)o2)sc2nc3cc(Br)cnc3n12
-21,nt,CCOC(=O)/C(C#N)=C(\C)C1CCCCC1
-15&1,nt,C=CCc1cccc2cc(C(=O)N(C)C)c(=O)oc12
34,nt,CC(C#N)Sc1nn(-c2ccc(Cl)c(Cl)c2)c(=S)s1 (stereo not drawn)
nt,2.5,NC(=O)c1cc[n+](CC2=C(C(=O)[O-])N3C(=O)[C@@H](NC(=O)Cc4cccs4)[C@H]3SC2)cc1
5,3.6,Cn1c(=O)c2ccccc2n(CC(N)=O)c1=O
nt,-4.2,CCOC(=O)c1c(C)oc(C)c1S(N)(=O)=O
9,0.3,Cc1nc(SCCOc2ccccc2)sc1C(=O)Nc1ccccc1
11,4.2,CC(C)CC(=O)N1CCN(C(=O)C2CC2)CC1
13,-2.7,O=C(O)c1c(-n2cccc2)sc2c1CCCC2
-13,nt,CN(C)C(=O)CSc1nc2ccc(Cl)cc2[nH]1
11,0.4,Cc1cc(Cl)c(Cl)cc1S(=O)(=O)n1cccn1
nt,-0.4,Cc1c(Cl)cccc1NC(=O)C1COc2ccccc2O1 (stereo not drawn)
-3,nt,O=C(Cc1csc(-c2ccccc2)n1)Nc1cccnc1

In the list so far, these have a tert-butyl group:
S aureus helic,MgrA DNA FP,SMILES
20,nt,Cc1cc(C(=O)Oc2cccc(Cl)c2)n(C(C)(C)C)n1
-18,nt,CC(C)(C)C(=O)/C=c1\[nH]c(=O)/c(=C\c2cn(CCC#N)nc2-c2ccccc2)s1

The list goes on.
S aureus helic,MgrA DNA FP,SMILES
nt,-1.4,Cc1nnc(-c2ccc(C(F)(F)F)cn2)nc1C
nt,0.7,CCOC(=O)c1c(NC(=S)Nc2cc(C)nn2-c2ccccc2)sc(C)c1C
24,nt,CC(OC(=O)c1ccccc1NS(C)(=O)=O)C(=O)Nc1ncc(Cl)cc1Cl (stereo not drawn)
32,nt,O=c1[nH]c(=O)n([C@H]2C[C@H](O)[C@@H](CO)O2)cc1Br
21,nt,NC(N)=N/N=C/c1ccccc1C(F)(F)F
3,-1.4,N#Cc1ccccc1NC(=O)Nc1ccc(CN2CCOCC2)cc1
-16,nt,CSc1nsc(SCC(=O)N2CCCC2)n1
-2,nt,COc1ccc2ccc(Oc3ncccn3)cc2c1
-7,2.0,COc1ccc(Br)c2c1OCCO2
5,nt,CC1CCCCN1S(=O)(=O)c1cccc2cccnc12 (stereo not drawn)
nt,-2.1,CSc1nc(C2CC2)nc(C2CC2)c1C#N
5,2.4,O=C1c2ccc(-c3nc4ccccc4c(=O)o3)cc2C(=O)N1c1cccnc1

Compound profiles, from the list above. Screens in order: S aureus helic	MgrA DNA FP
NC(N)=N/N=C/c1ccccc1C(F)(F)F is listed as 21	nt
O=c1[nH]c(=O)n([C@H]2C[C@H](O)[C@@H](CO)O2)cc1Br is listed as 32	nt
Cc1nnc(-c2ccc(C(F)(F)F)cn2)nc1C is listed as nt	-1.4
CC1CCCCN1S(=O)(=O)c1cccc2cccnc12 (stereo not drawn) is listed as 5	nt
CSc1nc(C2CC2)nc(C2CC2)c1C#N is listed as nt	-2.1

Screening data deposited in PubChem by ICCB-Longwood Screening Facility, Harvard Medical School.

These rows are one share of the data; count on the stated rates, not on these rows.
